Yeast UUG start – alters start codon recognition fidelity in yeast. S. cerevisiae UUG-firefly luciferase reporter, luminescence/redox ratio. activity score, % at 18.7 µM. actives 0.13% (n = 350,000);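 active means replicate mean at a twofold rise or more, about +100% in these data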;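 further: firefly luciferase made from a UUG start codon reports start codon fidelity; reporter light over untreated wells divided by growth signal over untreated wells; some hits fall short of that in this replicate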
CSC inhib – blocks cancer stem cells | cancer stem cell-like cells viability, luminescence | inhibition, % at 7.5 µM | actives 1.1% (n = 300,000) | AID 2717;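 active means mean at 75% or more and at least half the replicates too; inconclusive means mean and replicates disagree; tested in HMLE shEcad cells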;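 further: 0% = median of negative and 100% = median of positive control wells; the first replicate is given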
HIV Env fusion – inhibitors of HIV Env-mediated cell fusion; actives 1.1% (n = 360,000); AID 651610; inhibition, % at 12.3 µM; HeLa-JRFL Env/CEM21 cell fusion, luciferase;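 active means mean replicate inhibition score of at least 50 and every replicate individually at or above 50; inconclusive means only one of the two criteria met; inactive means mean below 50 and not all replicates reaching 50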;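 further: 0% = plate neutral controls and 100% = maraviroc near 300 nM; one replicate is shown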
Rce1 inhib – inhibitors of yeast Ras-converting enzyme; actives 0.27% (n = 290,000); calls only; Q03530; AID 2563; yeast membranes, quenched prenylated peptide cleavage fluorescence;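 active means fall in fluorescence gain of 50% or more versus controls, with final raw signal at or below 3038400; inconclusive means same 50% fall but final raw signal above 3038400; inactive means fall in fluorescence gain under 50%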;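 further: plate controls were neutral control wells for no effect and wells lacking membranes for full effect; tested at 10 µM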
MT1-MMP act inh – inhibitors of human MT1-MMP activation; GFP/RFP ratio change, % at 20 µM; AID 651647; HT1080 RFP-PRO-GFP cells, GFP/RFP ratio fluorescence, overnight; percent of plate control window, DMSO zero; actives 0.061% (n = 360,000);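 active means GFP/RFP ratio change of at least 30% with cell ATP level not reduced by more than half and red fluorescence within 50% of control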; further: strong numbers were not always called active
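Read-out: GFP/RFP fluorescence ratio; Test system: RFP-PRO-GFP reporter HT1080 cells; Compound dosing: single-point 20 µM compound, 1% DMSO; Times: overnight compound exposure at 37 °C.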
eIF4H FP inh – inhibitors of RNA binding by human eIF4H; Q15056; eIF4H fluorescence polarization binding assay; inhibition, % at 35 µM; actives 0.94% (n = 290,000); AID 2012;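 active means 50% or more with normal probe brightness, or confirmed in later tests; inconclusive means above 50% with abnormal brightness, or retests that disagree; inactive means below 50% or failed in later tests; about a fifth of its hits are not listed in these tables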;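 further: calls also rest on retests at 20 µM and on dose response follow-up; 0% = protein and probe with vehicle and 100% = probe without protein; strong numbers were not always called active; many hits fall short of the cut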
PABP polyA inh – PABP-poly(A) binding inhibition; PABP-poly(A) RNA binding, fluorescence polarization; inhibition, % at 35 µM; actives 1% (n = 290,000);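 active means 50% or more with normal probe brightness, or confirmed in later tests; inconclusive means above 50% with abnormal brightness, or retests that disagree; inactive means below 50% or failed in later tests; about a fifth of its hits are not listed in these tables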;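 further: calls also rest on retests at 20 µM and on dose response follow-up; controls were probe without protein and protein plus probe with vehicle; some compounds called inactive have numbers as strong as hits; many hits fall short of the cut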
Target sequence (P11940 whole entry, looked up): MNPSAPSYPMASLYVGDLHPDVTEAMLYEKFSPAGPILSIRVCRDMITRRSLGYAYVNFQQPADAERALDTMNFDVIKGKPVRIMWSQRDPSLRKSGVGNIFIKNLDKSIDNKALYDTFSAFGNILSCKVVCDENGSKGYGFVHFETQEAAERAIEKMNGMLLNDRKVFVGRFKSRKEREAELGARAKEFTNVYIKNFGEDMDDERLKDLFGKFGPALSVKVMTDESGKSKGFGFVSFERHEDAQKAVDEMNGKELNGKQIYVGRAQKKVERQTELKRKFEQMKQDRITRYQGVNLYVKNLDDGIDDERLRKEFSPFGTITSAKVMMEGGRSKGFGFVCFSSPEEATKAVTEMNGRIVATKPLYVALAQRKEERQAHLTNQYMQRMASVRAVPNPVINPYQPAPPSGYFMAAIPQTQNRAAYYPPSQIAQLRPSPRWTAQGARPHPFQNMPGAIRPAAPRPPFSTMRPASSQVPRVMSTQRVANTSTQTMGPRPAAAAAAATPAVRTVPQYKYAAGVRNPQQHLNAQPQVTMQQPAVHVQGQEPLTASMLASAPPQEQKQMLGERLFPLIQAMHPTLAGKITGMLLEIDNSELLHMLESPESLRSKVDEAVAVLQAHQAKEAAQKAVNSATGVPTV
eIF4H FP inh retest – second read-out of eIF4H FP inh, no call of its own (marks repeat the call); inhibition, %; compound at 20 µM; confirmation average;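 mean of two retest wells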
PABP polyA inh retest – further read-out of PABP polyA inh, marked with its call; inhibition, %; compound at 20 µM; confirmation repeats;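 mean of two retest wells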
MT1-MMP act inh RFP – recorded beside MT1-MMP act inh, whose call it bears; RFP signal change, %; measured here: RFP expression control read;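 0 = vehicle wells; hits needed this value within 50% of zero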
Numbers without * were called inactive; i = inactive; ? = inconclusive; . = not tested or not shown; & = joins results of further samples; [ ] = remark or other dose. This is a subset, so the mix of outcomes need not match the whole.

SMILES	Yeast UUG start	CSC inhib	HIV Env fusion	Rce1 inhib	MT1-MMP act inh	MT1-MMP act inh RFP	eIF4H FP inh	PABP polyA inh	others
CCOC(=O)C1=C(C)N=c2s/c(=C\c3ccc(OC(C)=O)c(OCC)c3)c(=O)n2C1/C=C/c1ccccc1 (configuration not stated)	.	-2.3	-75.5	i	42.2*	46.7*	10.3	-0.9
c1ccc(Oc2cc(-n3cccn3)ncn2)cc1	1.0	10.1	.	i	-9.8	-5.7	-4.0	-5.7
COC(=O)C1=C(C)OC(N)=C(C#N)C1c1ccccc1 (configuration not stated)	-18.3	-0.6	-221.1	i	-1.0	3.1	-1.4	9.8
CC(Sc1nc(N)cc(=O)[nH]1)C(=O)N1CCOCC1 (configuration not stated)	-15.8	.	24.9	.	-4.0	3.3	.	.
CCCn1c(N)c(C(=O)COC(=O)c2c(C)noc2C)c(=O)n(C)c1=O	-9.4	7.6	.	i	0.0	0.5	-9.5	-4.4
Cc1cccc(NC(=O)CSc2ncnc3sc(C)cc23)c1	-12.0	2.3	-6.8	i	-2.2	-2.1	6.0	-11.0
O=C1OCCN1C(=O)[C@H]1[C@H](c2ccc(Cl)cc2)C(c2ccc(F)cc2)=NN1c1ccccc1	-4.4	.	-45.5	.	-4.4	-5.0	.	.
O=C(N/N=C/C1CC2C=CC1C2)c1ccccc1O (configuration not stated)	-3.3	-13.8	-8.2	i	-0.8	4.6	4.9	-0.4
Cc1cc(-n2cnnn2)ccc1C(C)C	-15.9	-4.2	-12.1	i	1.4	3.5	-9.0	14.5
COc1ccc(C2=NOC(C(=O)Nc3cccnc3)C2)cc1OC (configuration not stated)	-2.0	-6.8	6.5	i	-16.4	-26.9	18.8	7.0
O=C(CN1C(=O)c2ccccc2S1(=O)=O)NC(Nc1ccccc1F)C(Cl)(Cl)Cl (configuration not stated)	0.5	-0.7	10.3	i	-2.1	-5.6	7.0	-4.1
Cc1ccc(S(=O)(=O)NC(=O)c2cccc(N(C)C)c2)cc1	-16.8	16.8	.	.	-2.4	2.6	.	.
O=C(O)CC12CC3CC(C1)CC(n1ncc(NCc4ccccc4Cl)c(Cl)c1=O)(C3)C2	-4.5	-13.3	4.8	i	-4.0	-0.1	-1.9	-6.1
CN(CCNC(=O)C1CC(=O)N(c2ccc(F)c(Cl)c2)C1)Cc1ccccc1 (configuration not stated)	-19.5	2.4	.	i	4.7	-3.4	2.4	-12.5
O=C(c1ccco1)N1CCN(C(=S)Nc2ccccc2Cl)CC1	-23.0	-0.8	4.7	i	4.6	0.8	-4.9	1.0

Four records drawn at random from those above, as already listed:
SMILES	Yeast UUG start	CSC inhib	HIV Env fusion	Rce1 inhib	MT1-MMP act inh	MT1-MMP act inh RFP	eIF4H FP inh	PABP polyA inh	others
CN(CCNC(=O)C1CC(=O)N(c2ccc(F)c(Cl)c2)C1)Cc1ccccc1 (configuration not stated)	-19.5	2.4	.	i	4.7	-3.4	2.4	-12.5
O=C(N/N=C/C1CC2C=CC1C2)c1ccccc1O (configuration not stated)	-3.3	-13.8	-8.2	i	-0.8	4.6	4.9	-0.4
O=C(CN1C(=O)c2ccccc2S1(=O)=O)NC(Nc1ccccc1F)C(Cl)(Cl)Cl (configuration not stated)	0.5	-0.7	10.3	i	-2.1	-5.6	7.0	-4.1
COC(=O)C1=C(C)OC(N)=C(C#N)C1c1ccccc1 (configuration not stated)	-18.3	-0.6	-221.1	i	-1.0	3.1	-1.4	9.8

(listing goes on)
SMILES	Yeast UUG start	CSC inhib	HIV Env fusion	Rce1 inhib	MT1-MMP act inh	MT1-MMP act inh RFP	eIF4H FP inh	PABP polyA inh	others
O=C(NCCc1ccc(Cl)cc1)C1CCN(S(=O)(=O)c2ccc(-n3cnnn3)cc2)CC1	.	-8.8	-1.5	i	-3.2	-13.7	-7.3	4.5
CC(C)NC(=O)Nc1ccc2c(c1)C(=O)N([C@H](C)CO)C[C@H](C)[C@@H](CN(C)S(=O)(=O)c1ccccc1)OCCCC[C@@H](C)O2	-17.1	.	24.1	.	-0.1	2.7	.	.
O=C(O)CNC(=O)/C=C/c1ccc(Cl)cc1Cl	.	-1.7	1.4	i	-1.1	5.0	-9.0	-14.1
CC(C)C1C(=O)N(Cc2cn(CCC3OCCCO3)nn2)CCS(=O)(=O)N1Cc1ccc(-c2cccc(CO)c2)cc1 (configuration not stated)	-10.8	.	13.9	.	1.3	1.2	.	.
Cc1ccc(NC(=O)CN2C(=O)N/C(=C/c3ccccc3OCc3cccc(C(=O)O)c3)C2=O)cc1	-7.0	.	-16.2	i	0.6	1.9	.	.
CN(C)CCOC1c2ccccc2-c2ccccc21	-2.7	-14.9	-6.3	i	-0.2	0.8	5.8	16.6
COc1ccc(C(C)=O)cc1CN1C(=O)NC2(CCCC2)C1=O	-6.4	1.3	-9.8	i	-1.3	-4.3	2.6	2.1
CC1(C(=O)NS(=O)(=O)Cc2ccccc2)CCN1C(=O)C/C=C/c1ccccc1 (configuration not stated)	2.7	.	-39.3	.	0.1	-0.5	.	.
C/C(=N\NC(=S)Nc1ccc(C)c(C)c1)c1ccc(N2CCOCC2)cc1	.	18.5	-20.1	i	4.4	0.0	5.5	3.6
C/C(=N/NC(=O)CCc1c(C)n[nH]c1C)c1cccc([N+](=O)[O-])c1	-10.4	-12.7	8.3	i	3.0	0.2	-3.6	4.6
CC(=O)Nc1ccc(S(=O)(=O)CC(=O)CS(=O)(=O)c2ccc(NC(C)=O)cc2)cc1	1.9	.	28.0	.	-2.8	-1.9	.	.
CC(C)CC(=O)/C=C/n1c(=S)oc2ccccc21	-15.4	28.5	-16.7	i	8.6	5.4	-15.4	-10.1
O=C(C1CCN(S(=O)(=O)c2cccc3nonc23)CC1)N1CCCCC1	-8.7	-0.9	-4.5	.	2.6	-1.2	-1.4	7.6
N=c1c(C(=O)NCc2ccc(F)cc2)cc2c(=O)n3ccccc3nc2n1CC1CCCO1 (configuration not stated)	20.5	15.3	.	?	-1.7	-5.0	-4.2	-7.9
O=C(CN1C(=O)c2ccccc2C1=O)Nc1ccccc1	-0.3	34.0	7.2	i	0.1	2.9	-2.9	-0.9
CNC(C)C#Cc1ccc2c(=O)c3cc(C)c(C)cc3oc2c1 (configuration not stated)	-17.9	3.1	-69.3	i	1.2	4.1	.	.
O=C1NCCCC1C(=O)N1CCN(C(=O)c2ccco2)CC1 (configuration not stated)	-23.5	-0.2	.	i	0.9	-0.8	-7.6	-2.9
COc1ccc2[nH]c(CN3CCN(CC(C)C)C(CCO)C3)c(C)c2c1 (configuration not stated)	1.2	4.2	-20.1	i	-1.4	-1.2	6.4	-3.9
Clc1ccc(-c2nc(CSc3ccccn3)cs2)cc1	-15.6	.	-28.9	.	-0.3	-2.2	.	.
COc1ccccc1CN(C)CC(=O)NC1CCCc2ccccc21 (configuration not stated)	.	4.0	12.7	i	1.1	5.4	0.1	4.4
CCOC(=O)N1CCN(c2c(NCc3ccccc3OC)c(=O)c2=O)CC1	-6.1	-5.2	15.2	i	4.1	-0.9	-4.7	-9.9
Cc1cc(Br)ccc1NC(=O)CNC(=O)CN1C(=O)NC2(CCCCCC2)C1=O	8.6	-6.6	.	i	0.3	-0.6	1.6	-4.9
O=C(NCc1ccccc1)NC(=O)c1ccccc1F	4.9	-13.5	-23.1	i	1.9	3.1	0.1	1.5
CC(NC(=O)CCCC1CCCCC1)c1ccc(S(N)(=O)=O)cc1 (configuration not stated)	0.3	-10.5	-5.7	i	2.0	6.6	-0.1	-0.5
C[C@H](CO)N1C[C@H](C)[C@H](CN(C)C(=O)c2cc(-c3ccccc3)on2)OCc2cnnn2CCCC1=O	-21.9&0.4&0.6	.	18.9[16.7 µM]	.	-0.2	-0.8	.	.
CCOC(=O)N1CCC(N2C(=O)c3ccccc3C2Nc2cc(C)cc(C)c2)CC1 (configuration not stated)	-16.8	.	22.3	i	-2.4	2.1	1.3	-7.0
CN1C(=O)/C(=C/c2ccc(OCc3ccc(C(=O)O)cc3)c(Cl)c2)NC1=S	-10.5	-1.5	-0.4	.	-3.0	-2.3	46.2	25.4
CC(NC(=O)NC1CCCCC1)c1ccccc1 (configuration not stated)	2.9	-7.8	-32.4	i	-0.4	3.4	1.6	-2.2
COc1ccc(Br)c(C(=O)Nc2cccc(Cl)c2Cl)c1	.	10.1	20.0	i	5.6	1.3	-2.7	-6.2
CC(=O)c1nc(-c2ccccc2)sc1C	.	13.0	-19.8	i	-2.3	1.0	-4.8	-3.1
O=C(CSc1nc2ccccc2c(=O)n1Cc1ccco1)N1CCCCCC1	-17.7	17.3	-1.7	i	0.6	-6.1	-2.0	2.1
O=C(C[n+]1ccccc1)N/N=C/c1cccs1	.	-10.0	0.0	i	2.0	4.4	6.8	6.7
COCCCNC(=O)[C@H]1N2C(=O)c3ccccc3C2SC1(C)C (some centres not stated)	.	3.7	-12.4	i	2.6	6.6	1.4	-1.7
Cc1cc(NC(=O)COc2cccc(Oc3ccccc3)c2)no1	-7.1	8.9	.	i	-6.3	-12.7	6.4	-1.2
Cc1cccc2cc(CN(CCN(C)C)C(=S)Nc3ccccc3)c(=O)[nH]c12	-7.8	2.1	-125.7	i	4.7	6.0	3.9	-9.0
Cc1ccc(C(=O)Nc2nnc(C3CCCCC3)s2)o1	-17.8	3.4	-148.0	i	-6.2	-2.7	4.8	-8.6
CCNc1ccc(Br)cc(C(=O)/C=C/c2ccc3c(c2)OCO3)c1=O	-6.5	0.3	.	i	-0.4	5.2	78.5*	38.3*	eIF4H FP inh retest=92.4*;PABP polyA inh retest=75.0*
CC(C)C1=Nc2cccc3cccc(c23)N1	-20.3	-2.7	-122.9	i	8.1	7.5	13.0	10.7
CC1CCCCN1C(=S)NC(=O)c1ccco1 (configuration not stated)	-2.1	-12.4	.	.	-1.7	2.7	.	.
C=CCOc1ccc(/C=C/C(=O)OCC(=O)NC2CCCCCC2)cc1	-39.1	-7.8	-3.2	i	2.0	-1.4	-3.4	-10.3
O=C(NCCCN1CCCC1=O)c1ccc(OCc2ccccc2)cc1	-2.6	.	-38.8	i	-0.3	0.8	-5.4	1.6
O=C(Nc1ccncc1)c1cc(S(=O)(=O)N2CCCCC2)ccc1Cl	-12.7	-7.9	-2.3	i	-3.8	-9.9	.	.
CC(C)CN1C(=O)C(=O)N(CC(=O)N2CCN(c3ccccc3)CC2)C1=O	.	2.1	3.6	i	2.0	3.4	.	.
COc1cc(C(=O)NCCC(=O)NC2CCCc3ccccc32)cc(OC)c1OC (configuration not stated)	-24.0	3.2	11.6	i	0.3	0.7	-11.7	-8.0
COc1ccc(NC(=O)COC(=O)C23CC4CC(CC(O)(C4)C2)C3)cc1Cl	-8.5	11.1	-22.2	.	3.9	8.7	.	.
O=C(N[C@@H](Cc1ccc(O)cc1)C(=O)O)c1cccnc1	-16.7	-4.1	-20.4	i	0.7	4.8	-3.3	6.0
C/C(=N\O)C(C)(C)Nc1ccc(Br)cc1	.	6.6	13.7	i	0.7	-3.7	2.8	-5.8
COc1ccccc1NC(=O)CSc1n[nH]c(-c2ccco2)n1	-10.3	.	-0.7	.	6.9	7.9	.	.
CCCNC(=O)C1(C)CCCN(C(=O)c2cc(C)nn2C(C)(C)C)C1 (configuration not stated)	-5.4	.	-14.6	.	1.5	-0.9	.	.
Cc1cc(C(=O)CSc2nn3c(=O)c(C(C)(C)C)nnc3s2)c(C)n1C	.	-0.2	-13.9	i	-1.5	1.5	37.9*	101.4*	eIF4H FP inh retest=62.9*;PABP polyA inh retest=70.5*
